gsp antag = qHTS for Antagonists of gsp, the Etiologic Mutation Responsible for Fibrous Dysplasia/McCune-Albright Syndrome: qHTS; gsp-mutant cells, cAMP HTRF, 30 min; control for the full effect not named in the record; Potency, µM (series often up to 76.9 µM), for inactives: at the top dose activity change, negative = inhibition, usual class: inhibitors; 0.4% of 340,000 active; AID 624288, 2012; active = falling curve of any shape with a large fitted effect; inconclusive = falling curve, mostly with a smaller effect; inactive = flat or rising curve; cell line not stated here;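 further: intracellular cAMP measured with PDE inhibitor Ro 20-1724 present during compound exposure; potency means the concentration at half of the fitted maximal effect; on the % scale 0 is the no-effect control and ±100 the full control effect; nearly all actives have a fitted effect of over 65% in size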
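Cells in G418 medium, seeded 16-24 h, 37C; buffer exchange to DPBS + 1 mM CaCl2, 0.5 mM MgCl2, 0.05% BSA; cpds in DMSO + […] (300 uM stock), 30 min 37C; HTRF cAMP detection.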
TRPML1 agonist = qHTS for Agonists of the Human Mucolipin Transient Receptor Potential 1 (TRPML1). Mucolipin-1 (Homo sapiens), Q9GZU1. TRPML1-expressing cells, Ca2+ dye fluorescence, FDSS; host cell line not named in the record; reference of the full effect not given here. activation, % (test concentration not listed). 0.12% of 410,000 active. AID 624414, 2012; in the data active = activation above about 50%; inconclusive = about 30% to 50%; inactive = below about 30%; further: 0% is about no effect; the text of the record puts the active cut at 80%
Target sequence (Q9GZU1 whole entry, looked up): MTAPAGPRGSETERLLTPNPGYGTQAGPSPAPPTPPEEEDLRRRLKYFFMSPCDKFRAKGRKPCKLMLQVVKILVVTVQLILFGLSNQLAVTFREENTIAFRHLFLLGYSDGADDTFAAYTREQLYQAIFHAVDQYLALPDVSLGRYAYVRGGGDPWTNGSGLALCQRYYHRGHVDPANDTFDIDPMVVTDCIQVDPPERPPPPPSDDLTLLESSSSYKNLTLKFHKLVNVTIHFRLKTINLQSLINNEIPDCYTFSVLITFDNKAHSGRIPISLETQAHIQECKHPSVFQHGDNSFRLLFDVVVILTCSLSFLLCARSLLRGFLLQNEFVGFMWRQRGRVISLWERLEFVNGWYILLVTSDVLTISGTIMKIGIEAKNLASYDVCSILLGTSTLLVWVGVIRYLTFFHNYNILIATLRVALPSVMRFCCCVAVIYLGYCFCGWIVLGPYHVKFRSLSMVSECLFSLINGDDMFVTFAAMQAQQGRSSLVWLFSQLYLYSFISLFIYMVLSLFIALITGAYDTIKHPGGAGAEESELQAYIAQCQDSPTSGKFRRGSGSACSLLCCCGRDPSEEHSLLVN
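Agonist activity was taken from a 110 s kinetic Ca2+ dye read on the FDSS after pinning compounds onto TRPML1-DL cells. The cells were seeded at 1,500/well with Tet inducer, incubated about 16 h, then dye-loaded at room temperature.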
Menin MLL FP FL = qHTS Assay for Inhibitors Targeting the Menin-MLL Interaction in MLL Related Leukemias: Competition With Fluorescein Labeled MLL-derived Peptide | 290,000 tested, under 10 active | Fluorescence polarization, fluorescein-MLL peptide displacement from menin | AID 1766, 2009 | FP activity change, % at 61.4 µM; inconclusive = falling polarisation curve, or a change in total fluorescence; inactive = total fluorescence flat and polarisation flat or rising; no compound was filed as active; the % refers to the polarisation; negative = inhibition;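 further: % of control where 0% means no effect; inhibitors lower the polarisation; unlabelled MLL peptide was the positive control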
ClpP mod = qHTS Assay for Activators of ClpP | ATP-dependent Clp protease proteolytic subunit (Bacillus subtilis (strain 168)), P80244 | purified B. subtilis ClpP, FRET peptide cleavage, 20 min | 1.9% of 340,000 active | AID 651965, 2013 | Potency, µM (series often up to 57.5 µM), without a hit: at the highest dose activity change, negative = active; active = well fitted falling curve with a large enough effect; inconclusive = small, poorly fitted or top-dose-only effect; inactive = no such curve, though single readings can be large or run the other way; further: potency means the concentration at half of the fitted maximal effect; the source files actives as falling curves though it sought activators and does not explain the sign; nearly all actives have a fitted effect of over 65% in size; many hits overshoot -100%
Target sequence (P80244 whole entry, looked up): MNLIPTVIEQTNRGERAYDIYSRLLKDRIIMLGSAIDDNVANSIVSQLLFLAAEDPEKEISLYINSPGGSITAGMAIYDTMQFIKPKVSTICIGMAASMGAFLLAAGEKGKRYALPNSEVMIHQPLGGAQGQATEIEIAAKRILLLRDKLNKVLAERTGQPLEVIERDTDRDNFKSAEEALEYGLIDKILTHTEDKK
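FRET quenching reversal measured ClpP activation: 10 microg/mL B. subtilis ClpP at pH 8 with the FRET-FV decapeptide, read at 430 nm after 320 nm excitation. The 20-min minus 0-min signal was scaled between DMSO/no-enzyme wells and ADEP (5.8 microM final).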
TRPML1 inh = qHTS for Inhibitors of the Human Mucolipin Transient Receptor Potential 1 (TRPML1); TRPML1-inducible cells, Ca2+ dye fluorescence, FDSS; stronger effect = lower value; inhibition of EC80 agonist-evoked calcium signal; activity change, negative = inhibition, % (concentration not given with the values); 0.02% of 390,000 active; in the data active means activity change below about -50%; inconclusive means about -30% to -50%; inactive means above about -30%;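 further: stimulus is agonist 54-4 at its EC80 concentration; on the % scale 0 is the no-effect control and ±100 the full control effect; compound concentration not given in the record; the text of the record puts the active cut at -80%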
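TRPML1-DL cells, Tet-induced overnight (~16 h, 37 °C) at 1,500 cells/well, were loaded with Ca8 no-wash dye plus quencher for 45-90 min at room temperature. Compounds were pinned during FDSS kinetic reading; agonist 54-4 at EC80 (4 uM final) then added.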
gsp ag = qHTS for Agonist of gsp, the Etiologic Mutation Responsible for Fibrous Dysplasia/McCune-Albright Syndrome: qHTS; gsp mutant cells, cAMP HTRF, 30 min; control for the full effect not named in the record; Potency, µM (series often up to 76.9 µM), for the others: at the top dose activation (cAMP increase), most hits filed as activators; 0.13% of 340,000 active; active = well fitted activation curve with a large enough effect; inconclusive = small, poorly fitted or top-dose-only effect, or another doubt; inactive = no such curve, though single readings can be large or run the other way; cell line not stated here;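 further: phosphodiesterase inhibitor Ro 20-1724 added with compounds to block cAMP breakdown; potency means the concentration at half of the fitted maximal effect; nearly all actives have a fitted effect of over 60% in size; about a fifth of the inactives were tested at one dose only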
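Cells in DMEM/10% FBS with G418 were pretreated with compounds in DMSO plus […] (300 uM stock) for 30 min at 37C. cAMP was measured by HTRF (cAMP-d2 plus anti-cAMP antibody-K) after 30 min at room temperature.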
An asterisk follows results filed as active; ? = inconclusive; / = no result given; & = joins results of further samples; [ ] = another dose, or the depositor's remark.

mol	gsp antag	TRPML1 agonist	Menin MLL FP FL	ClpP mod	TRPML1 inh	gsp ag
O=C(CN1N=C(c2ccccc2)CCC1=O)NCCN1CCc2ccccc2C1	10%	0.3	-0.6	2.3%	-3	-25%
Nc1ncnc2oc(-c3ccco3)c(-c3ccco3)c12	5%	-0.1	?	8.9µM*	7	-4%
CCc1cc2c(cc3c(=O)n(CC(=O)NCCOC)nc(CC)n32)s1	/	-0.5	/	-5.1%	14	/
Cc1ccc(S(=O)(=O)c2nnn3c2nc(Nc2cccc(C)c2)c2ccccc23)cc1	32%	3.1	4.8	-15%	0	-8%
Cc1ccc(/C=N/n2c(-c3ccncc3)n[nH]c2=S)s1	-27%	0.2	-0.9	1.0%	-17	0%[15.4 µM]
COc1ccc(C(=O)n2nc(-c3ccc(Cl)cc3)nc2N)cc1OC	3%	-0.1	-1.9	-5.5%	-9	24%
COc1ccc(/C=C(\NC(=O)c2cccs2)C(=O)N2CCOCC2)cc1OC	19%	-0.5	/	0.5%	-4	-3%[15.4 µM]
CN(C)c1cccc(C(=O)OCC(=O)Nc2ccccc2Cl)c1	-11%	0.0	0.7	/	-11	-5%[15.4 µM]
Cc1cc(C)c2sc(NC(=O)c3ccc([N+](=O)[O-])o3)nc2c1	-12%	-0.2	5.3	-2.7%	-11	-51%[inhibitor]
O=[N+]([O-])c1ccccc1S(=O)(=O)Oc1ccc(C(=S)N2CCOCC2)cc1	-16%	-0.8	2.7	/	-5	1%
CCOC(=O)C(C)Sc1nc(-c2cccs2)ccc1C#N (stereo unspecified)	-6%	-0.1	11	13µM*	56	?
CC1=C(C(=O)Nc2ccccc2)C(c2ccccn2)n2ncnc2N1 (stereo unspecified)	14%	-0.2	0.9	47%	11	0%[15.4 µM]
O=c1[nH]cnc2scc(-c3cccs3)c12	3%	0.3	3.1	-3.3%	-8	0%
O=C(CN1C(=O)COc2ccc(S(=O)(=O)NC3CCCC3)cc21)Nc1ccc(Cl)cc1F	/	1.6	/	-3.3%	-3	/
CCN(c1ccccc1)S(=O)(=O)c1nnc(NC(=O)C(C)Oc2ccccc2)s1 (stereo unspecified)	/	2.9	/	0.2%	-10	/
CCN1CCN(C(=O)c2ccccc2N(Cc2ccccc2)S(=O)(=O)c2ccc(C)cc2)CC1	8%	-0.2	3.0	-1.6%	-6	8%
O=C(NCCc1ccccc1)c1ccc(Cn2c(SCc3ccc(F)cc3)nc3cccnc32)cc1	/	2.7	/	?	11	/
CCOC(=O)NCCc1ccc(OC)cc1	-6%	-0.6	4.3	0.9%	17	13%
COc1ccc(F)cc1S(=O)(=O)Nc1cccc(-c2ccc(N3CCC(C)CC3)nn2)c1	/	-0.5	/	-5.8%	1	/
COCCCNC(=O)CSC1=Nc2ccccc2C2=NC(c3ccccc3)C(=O)N12 (stereo unspecified)	-2%	3.8	1.2	3.9%	-8	20%
COC(=O)c1c(NC(=O)c2ccc([N+](=O)[O-])o2)sc2c1CCN(C(C)C)C2	-9%	-0.3	0.7	-1.4%	-1	8%[15.4 µM]
COc1ccc(C(=O)N2CCN(S(=O)(=O)c3ccc4c(c3)OCCO4)CC2)cc1OC	-22%	-0.6	/	-0.9%	-10	-2%
O=S(=O)(NCCCN1CCN(c2ccccc2F)CC1)c1cccc2cccnc12	-5%	-0.1	-1.8	-2.0%	-8	5%
COc1ccc(-c2cc(C(F)(F)F)n3nc(C(=O)NCCCn4ccnc4)cc3n2)cc1	6%	2.0	2.2	28µM*	-2	3%
Cc1cc(C)c(S(=O)(=O)N2CCC(N3CCN(Cc4ccc(F)cc4)C(=O)C3=O)CC2)c(C)c1	/	1.3	/	0.1%	7	/
COc1ccccc1CN(C)C(=O)C(c1ccccc1)c1ccccc1	-18%	4.7	6.4	-1.3%	27	-1%
NC(=O)c1ccc(NC(=O)CSc2nnc(-c3ccncc3)n2Cc2ccco2)cc1	2%	-0.6	0.3	-5.5%	-4	7%[15.4 µM]
CC(=O)N1CCCc2cc(S(=O)(=O)N3CCN(c4ccccc4F)CC3)ccc21	/	2.3	/	1.6%	34	/
CCOc1cc(/C=C\c2nc(O)c([N+](=O)[O-])c(=O)[nH]2)ccc1OC(C)CC (stereo unspecified)	1%	0.3	-11	0.5%	5	-8%
CC1/C(=N/O)CC(c2ccccc2)N(C)C1c1ccccc1 (stereo unspecified)	-17%	0.1	2.2	-1.8%	-2	14%

Laid out differently: 2 of the compounds above
SMILES: COc1ccc(C(=O)n2nc(-c3ccc(Cl)cc3)nc2N)cc1OC
  gsp antag = 3% | TRPML1 agonist = -0.1 | Menin MLL FP FL = -1.9 | ClpP mod = -5.5% | TRPML1 inh = -9 | gsp ag = 24%

SMILES: CCOC(=O)C(C)Sc1nc(-c2cccs2)ccc1C#N (stereo unspecified)
  gsp antag = -6% | TRPML1 agonist = -0.1 | Menin MLL FP FL = 11 | ClpP mod = 13µM* | TRPML1 inh = 56 | gsp ag = ?

Next section:
mol	gsp antag	TRPML1 agonist	Menin MLL FP FL	ClpP mod	TRPML1 inh	gsp ag
COc1ccc(C2C(C(=O)Nc3cccnc3)=C(C)Nc3nc(-c4cccs4)nn32)cc1OC (stereo unspecified)	-6%	0.4	2.0	-3.7%	12	-3%
Cc1ccc(NS(=O)(=O)c2c(C)[nH]c(C)c2C(=O)N2CCCCC2)c(Br)c1	3%	-0.6	1.9	-0.7%	2	?
O=C(CCl)Nc1ccc(Sc2ccc(NC(=O)CCl)cc2)cc1	-10%	10	3.4	/	19	3%
O=[N+]([O-])c1ccc(Oc2ccc(S(=O)(=O)Nc3ccccc3)cc2)cc1	13%	11	2.7	1.1%	-17	8%[15.4 µM]
Cc1ccc(N(Cc2cc3ccccc3[nH]c2=O)S(=O)(=O)c2ccccc2)cc1	-10%	0.5	-1.0	-15%	34	-49%[inhibitor]
C=CCn1c(O)c(N=O)c2cc(C)ccc21	-9%	2.6	-1.1	/	34	13%
Cn1c(=O)n(C)c2cc(NS(=O)(=O)c3ccc(F)cc3)ccc21	-6%	-0.2&1.2	2.7	1.2%	20&-10	-9%
O=C(C(=O)N1CCN(c2ccc(F)cc2)CC1)N1CCCCC1	11%	0.4	-2.8	/	27	9%
CCCC(CCC)C(=O)Oc1cc(C)[nH]c(=O)c1[N+](=O)[O-]	5%	-0.4	-2.2	/	5	-28%
C/C(CC1(O)C(=O)N(Cc2ccccc2)c2ccccc21)=N\O (stereo unspecified)	?	0.7	1.9	-0.8%	40	-6%
CN1CCN(C2=C(Cl)C(=O)N(C3CCCCC3)C2=O)CC1	13%	-0.4	-19	0.0%	5	5%
O=C(Cn1ncc2c([nH]c3ccccc32)c1=O)Nc1ccc(F)cc1F	-7%	0.5	-2.2	-11%	-13	-98%[inhibitor]
Cc1cc(C)c2c(c1)C1C=CCC1C(c1ccc(S(=O)(=O)N3CCOCC3)cc1)N2 (stereo unspecified)	1%	-0.2	2.2	1.2%	-15	-14%
CCc1noc(C)c1C(=O)NNC(=O)c1cc(OC)cc(OC)c1	3%	-0.3	/	0.3%	0	-17%
C[C@H](NC(=O)[C@@H]1Cc2ccccc2CN1C(=O)OC(C)(C)C)C(=O)NC1CCCC1	5%	-0.2	/	0.3%	-12	-13%
CCOc1ccccc1NC(=S)NC(=O)c1ccco1	-18%	-0.6	-1.7	-2.1%	9	?
Cc1ccc(CN2CC(C(=O)N(C)CC(=O)Nc3cccc(F)c3)CC2=O)cc1 (stereo unspecified)	1%	-0.4	/	0.4%	-18	-23%
Cc1ccc(C)c(S(=O)(=O)c2nnn3c2nc(N2CCOCC2)c2sccc23)c1	/	0.1	/	1.0%	-23	/
CCCS(=O)(=O)C(=C1Nc2ccccc2N1)S(=O)(=O)CCC	4%	-0.7	0.2	0.9%	2	22%
COC(=O)C=CSC(=S)C1CCCC1=N (stereo unspecified)	/	-0.2	/	0.4%	2	-14%
CNC(=O)c1ccc2c(c1)nnn2C	8%	-0.4	/	-0.5%	-4	-7%
Cc1cccc(N/N=C/c2ccncc2)c1	15%	-1.1	1.5	0.1%	0	-5%[15.4 µM]
CCOC(=O)C1(Cc2ccccc2C(F)(F)F)CCN(CC2CC2)CC1	8%	0.0	-1.0	/	15	-38%[inhibitor]
O=C(c1cc2cc(Br)ccc2o1)N1CCOCC1	9%	-0.4	0.4	-3.7%	22	-13%
CCOc1ccc(N(CC(=O)NCc2cccnc2)S(=O)(=O)c2ccc(F)cc2)cc1	9%	0.0	/	1.1%	-2	-5%[15.4 µM]
CCn1c(CCNC(=O)c2ccc(OC)cc2)nnc1SCC(=O)Nc1ccccc1F	-2%	1.2	2.1	0.8%	32	?
COc1ccc(-n2c3nc4ccccc4nc3c3c(=N)oc(C)nc32)cc1	-2%	-1.1	/	1.4%	13	5%[15.4 µM]
O=C(O)CC1(Cc2nc(-c3cccs3)no2)CCCC1	-15%	-1.3	2.5	1.3%	4	0%
COc1ccc(NC(=O)CSc2nc3ccc(Nc4nc(N5CCOCC5)nc(N5CCOCC5)n4)cc3s2)cc1	-12%	1.2	/	1.3%	-3	1%
O=C(Cc1ccsc1-c1ccccc1)NO	12%	-0.9	-0.3	1.1%	6	0%
CC1CCCN(C2=NC(=O)/C(=C/c3cn(-c4ccccc4)nc3-c3cccc(S(=O)(=O)N(C)C)c3)S2)C1 (stereo unspecified)	0%	-1.0	0.5	-14%	1	-23%
CC(Oc1cc(C(F)(F)F)cc(C(F)(F)F)c1)C(=O)NC(N)=O (stereo unspecified)	-2%	-0.2	5.7	-0.6%	2	-40%[inhibitor]
CCOC(=O)C1=C[C@@H](C(C)(C)C)N(S(=O)(=O)c2ccc(C)cc2)[C@H]1c1ccc(OC)cc1	/	2.7	/	-2.0%	-3	/
Cc1cccc(C)c1OCC(=O)N/N=C/c1cc2c(cc1[N+](=O)[O-])OCO2	-10%	1.6	0.9	-0.6%	53	-4%
COc1ccc(-c2nc(CNC(=O)Nc3ccccc3)c(C)o2)cc1	/	1.9	/	-28%	27	/
Cc1ccc(C2CC(C(F)(F)F)n3nc(C(=O)Nc4c(C)n(C)n(-c5ccccc5)c4=O)cc3N2)cc1 (stereo unspecified)	-3%	-1.0	-1.3	/	4	-16%[15.4 µM]

Assay outcomes: PubChem, National Center for Advancing Translational Sciences (NCATS)
